GIV Gai3 FP: blocks GIV peptide binding to rat Galpha-i3. Galpha-i3/FITC-GIV peptide fluorescence polarization, 90 min; active compounds read low; scaled: aluminum fluoride 0%, vehicle 100%. AID 1224905. percent of control (FP), % (test concentration not listed). P08753. 0.42% of 210,000 active;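 active means replicate mean at 85% of control or lower, very high polarization wells dropped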;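 further: lower values mean more displacement of the GIV peptide from Galpha-i3; wells of about 15 µL received 100 nL stock; the first replicate is given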
Target sequence (P08753 whole entry, looked up): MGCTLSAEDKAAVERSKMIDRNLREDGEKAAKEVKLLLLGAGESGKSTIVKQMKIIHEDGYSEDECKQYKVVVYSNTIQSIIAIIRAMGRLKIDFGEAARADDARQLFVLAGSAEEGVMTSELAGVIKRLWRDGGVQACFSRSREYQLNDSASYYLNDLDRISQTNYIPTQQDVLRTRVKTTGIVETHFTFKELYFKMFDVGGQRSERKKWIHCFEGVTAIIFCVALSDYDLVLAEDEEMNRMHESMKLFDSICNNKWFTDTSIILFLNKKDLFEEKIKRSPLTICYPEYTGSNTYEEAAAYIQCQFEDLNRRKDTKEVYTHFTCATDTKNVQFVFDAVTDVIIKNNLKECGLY
An asterisk follows results filed as active. Some of the compounds tested (hit frequency here may not be typical).

SMILES | GIV Gai3 FP
COc1ccc(C2Oc3ccc(Br)cc3C3CC(c4ccc(C)cc4)=NN32)cc1 (stereo not drawn) | 107
Cc1ccc(Oc2cc3c(cc2S(=O)(=O)N(C)C)C(=O)Nc2ccccc2O3)cc1C | 103
CN(CCCNC(=O)C1CCCN(c2nn3c(=O)c4c(nc3s2)CCCC4)C1)C1CCCCC1 (stereo not drawn) | 98
COCCn1c(CNC(=O)C2CC2)nc2cccnc21 | 98
COc1cccc(NS(=O)(=O)c2cc(C(=O)N3CC(C)CC(C)C3)ccc2NCc2ccc(F)cc2)c1 (stereo not drawn) | 104
CCS(=O)(=O)c1c(S(=O)(=O)CC)c2c3ccccc3ccn2c1C(=O)c1ccc(Cl)cc1 | 103
CC(C)c1cc(C2CCCN2C(=O)C(C)(C)C)no1 (stereo not drawn) | 103
Cc1cc(C2CCCN2Cc2cn[nH]c2-c2ccc(C)c(C)c2)no1 (stereo not drawn) | 109
Clc1cccc(-c2nnc(-c3nc(NC4CCCC4)c4ccccc4n3)o2)c1 | 109
O=c1c2c(n3nnnc3n1Cc1ccccc1)-c1ccccc1CC21CCCC1 | 110
O=C1c2ccccc2-c2c3cc(Br)ccc3nc3c(Nc4ccccc4)ccc1c23 | 103
CN(C)C(=O)CSc1nnc2n(CCC(=O)NC3CCCCC3)c(=O)c3ccccc3n12 | 99
Cc1ccc(CS/C(Nc2ccccc2)=C(\C#N)C(=O)Nc2ccccc2C)c(C)c1 | 101
CC(C)C12C=CC(C)(CC1)C1C(=O)N(c3cccc(Cl)c3)C(=O)C12 (stereo not drawn) | 102
CC1=C(C(=O)OCCOc2ccccc2)C(c2cccc([N+](=O)[O-])c2)C2=C(CC(c3cccs3)CC2=O)N1 (stereo not drawn) | 108
Cc1ccc(S(=O)(=O)c2cnc(N3CCN(C4CCCCC4)CC3)nc2N)cc1C | 99
O=c1oc(Nc2ccccc2)nc2sc3c(c12)CCCC3 | 106
CCN(CC)CCCNC(=O)c1sc2ncn(CC(=O)Nc3cccc(C(F)(F)F)c3)c(=O)c2c1C | 109
O=S(=O)(c1ccc2c(c1)CCCC2)N1CCCC1c1nc(-c2ccccc2)no1 (stereo not drawn) | 96
CCCc1[nH]n(-c2ccc(F)cc2)c(=O)c1C=NCCc1ccc(S(N)(=O)=O)cc1 | 106
O=C(Nc1ccc(F)c(Cl)c1)C1OC2OC3(CCCCC3)OC2C2OC3(CCCCC3)OC12 (stereo not drawn) | 100
Cc1nc2cc(C(=O)NCc3ccco3)ccc2n1-c1ccc(OCc2ccccc2)cc1 | 103
CCn1c(=O)n(CC(=O)N2CCN(Cc3ccc4c(c3)OCO4)CC2)c(=O)c2ccccc21 | 111
CC1(C)c2ssc(=S)c2-c2ccccc2N1C(=O)CN1C(=O)CCC1=O | 130
CCOC(=O)c1sc(NC(=O)C(C)Sc2nnc(CNC(=O)c3ccco3)n2C2CCCCC2)c(C(=O)OCC)c1C (stereo not drawn) | 101
c1ccc(-c2ccc(-c3nc4ccccc4nc3-c3ccccc3)cc2)cc1 | 106
CCOc1ccc2c(c1)-c1c(ssc1=S)C(C)(C)N2C(=O)C(Cc1ccccc1)N1C(=O)c2ccccc2C1=O (stereo not drawn) | 107
O=S(=O)(c1cc(-c2nnc(-c3ccc(F)cc3)o2)ccc1Cl)N1CCCCC1 | 101
O=C(NCc1ccccc1)N1CCC(N2CCN(Cc3cccc(F)c3)C(=O)C2=O)CC1 | 98
Nc1ccc2nc(-c3ccccc3)c(-c3ccccc3)nc2c1 | 108
Cc1ccc(-n2nc3c(c2NC(=O)c2ccc(S(=O)(=O)N4CCOCC4)cc2)CS(=O)(=O)C3)c(C)c1 | 108
COc1cc(C2C(N3C(=O)c4ccccc4C3=O)C(=O)N2c2ccc(C)c(Cl)c2)cc(OC)c1OC (stereo not drawn) | 108
CC1(C)Cc2c(ccc3ccccc23)/C(=C/C#N)N1 | 109
CCOC(=O)C(=O)N1c2ccccc2C(C)(c2ccccc2)CC1(C)C (stereo not drawn) | 111
O=C(Cn1c(=O)ccc2cc(S(=O)(=O)N3CCCC3)ccc21)N1CCN(c2ccccc2F)CC1 | 104
COc1ccc(-c2[nH]nc3c2C(c2ccc(C(F)(F)F)cc2)C(C#N)=C(N)O3)cc1OC (stereo not drawn) | 111
COC(=O)c1sccc1NC(=O)CN1CCCN(Cc2ccccc2F)S1(=O)=O | 108
Cc1ccc(C2OC(=O)c3ccccc32)cc1F (stereo not drawn) | 113
COc1ccc(Br)cc1C1Nc2ccc3ncccc3c2C2=C1C(=O)CCC2 (stereo not drawn) | 105
C=CCN1C(=O)/C(=C\c2ccc(-c3ccc(Cl)c([N+](=O)[O-])c3)o2)C(=O)NC1=S | 103
CCC(C)(C)NS(=O)(=O)c1ccc2c(c1)C(C)(C)CN2CC(=O)N1CCCC1 | 89
CC(C)C(=O)N1CCCN(S(=O)(=O)C(C)C)CC1 | 99
O=C(Nc1cccc(C(F)(F)F)c1)c1ccc(N2CC3CC(C2)c2cccc(=O)n2C3)c(NC(=O)c2ccccc2)c1 (stereo not drawn) | 108
O=C(NCc1c(-c2ccccc2)nc2n1CCS2)c1ccccc1Cl | 98
CCN1CCN(CCNC(=O)c2oc(=O)c3ccccc3c2-c2ccc(C)cc2)CC1 | 100
CN(C)C(=O)C1CCN(S(C)(=O)=O)c2cc(Cl)ccc2O1 (stereo not drawn) | 100
Cn1nnc(NCc2ccc(Br)cc2)n1 | 100
CCOC(=O)c1ccccc1NC(=O)Cn1nc2c(Oc3ccccc3)nccn2c1=O | 104
O=C(NCc1cccs1)c1cc2n(n1)CCCC2 | 98
COC(=O)c1ccccc1NS(=O)(=O)c1cc(S(=O)(=O)Nc2ccccc2C(=O)OC)c2cccc3c2c1NC3=O | 106

Structures from the list above with a cyano group (three):
SMILES | GIV Gai3 FP
Cc1ccc(CS/C(Nc2ccccc2)=C(\C#N)C(=O)Nc2ccccc2C)c(C)c1 | 101
CC1(C)Cc2c(ccc3ccccc23)/C(=C/C#N)N1 | 109
COc1ccc(-c2[nH]nc3c2C(c2ccc(C(F)(F)F)cc2)C(C#N)=C(N)O3)cc1OC (stereo not drawn) | 111

(cont.)
SMILES | GIV Gai3 FP
Oc1ccc(Nc2nc3nonc3nc2Nc2ccccc2)cc1 | 101
CC(=O)N1c2c(C)ccc(C)c2-c2ccccc2S1(=O)=O | 115
CCCCC1(CC(=O)OC)C(=O)N(c2ccccc2)N(c2ccccc2)C1=O | 108
CCCN1CCN(CCCNC(=O)c2cnc3c(C)cccn3c2=O)CC1 | 103
CC12COC3(C(=O)Nc4ccc(Br)cc4)CC1CCC32C (stereo not drawn) | 104
Cc1cc(-c2csc(S(=O)(=O)Nc3ccc(S(N)(=O)=O)cc3)c2)on1 | 104
CCOC(=O)C1=C(O)/C(=C/c2ccc(O)cc2)SC1=Nc1cccc(Cl)c1 | 106
O=S(=O)(NC1CCN(Cc2ccccc2)CC1)c1cc(-c2cc(C(F)(F)F)on2)cs1 | 100
COc1ccc(Nc2c(-c3ccc(N(C)C)cc3)nc3cnc(Br)cn23)cc1OC | 124
COc1ccccc1NC(=O)CSc1nc2ccccc2c(=O)n1CCC(=O)N1CCN(c2ccccc2)CC1 | 107
COc1ccc(C(=O)CN2C3=NCCN3c3ccccc32)cc1 | 122
CC(C)N1CCN(C(=O)C2CCN(c3cnc(N4CCSCC4)nc3)CC2)CC1 | 104
Cc1c(C(=O)N2CCc3ccccc3C2)sc2nc(SCc3cccc([N+](=O)[O-])c3)n(CCc3ccccc3)c(=O)c12 | 106
CC(=O)OCC1OC(Sc2ccccn2)C(OC(C)=O)C(OC(C)=O)C1COC(C)=O (stereo not drawn) | 118
CCOC(=O)c1c(C)oc2ccc(N(C(=O)c3ccc(Cl)cc3)S(=O)(=O)c3ccccc3)cc12 | 107
Nc1nc(N2CCC3(CC2)OCCO3)ncc1S(=O)(=O)c1ccccc1 | 103
CC1(C)C(=O)NCCN1C(=O)C1CCCC1 | 99
COC(=O)C1=C(C)OC(N)=C(C#N)C1c1ccc(OC)c(CSc2ccccn2)c1 (stereo not drawn) | 108
Cn1c(=O)n(CC(=O)N2CCCC2)c(=O)c2cc(S(=O)(=O)Nc3ccc(Cl)cn3)ccc21 | 99
Cc1nc(-c2ccc3c(c2)n(CC(=O)NC(C)(C)C)c(=O)n3C(C)C)no1 | 99
Cc1c(NC(=O)CSc2nc3ccc([N+](=O)[O-])cc3s2)c(=O)n(-c2ccccc2)n1C | 105
O=C1/C(=C/c2ccc(-c3cc(Cl)ccc3Cl)o2)C=C(c2ccccc2)N1c1ccc(Br)cc1 | 112
C=CCOC(=O)C1=C(C)NC(C)=C(C(=O)OCC=C)C1c1cn(-c2ccccc2)nc1-c1ccco1 | 119
CC(C)C(=O)N1CCC2(C1)C(=O)N(C)c1ccccc12 (stereo not drawn) | 107
COc1ccc(C2Nc3ccc(Cl)cc3C(c3ccccc3)O2)cc1 (stereo not drawn) | 108
COc1ccc(N(CC(O)CN(CC(C)C)CC(C)C)S(=O)(=O)c2ccccc2)cc1 (stereo not drawn) | 117
Oc1ccc(-c2nc3ccccc3[nH]2)cc1 | 105
COc1cc(C2C3=C(CC(C)(C)CC3=O)NC3=C2C(=O)CC(C)(C)C3)ccc1OCc1ccccc1 | 117
Cc1ccc2c(c1)OC(C)CN2C(=O)C1CCCO1 (stereo not drawn) | 98
COC(=O)COc1cccc(C2C3=C(CC(C)(C)CC3=O)OC3=C2C(=O)CC(C)(C)C3)c1 | 105
Cc1c(C(c2cc(I)ccc2O)c2c(C)n(C)n(-c3ccccc3)c2=O)c(=O)n(-c2ccccc2)n1C | 117
CC(C)CCN(CCC(C)C)S(=O)(=O)c1ccc2c(c1)Cc1cc(S(=O)(=O)N(CCC(C)C)CCC(C)C)ccc1-2 | 109
CCOc1ccc(NC(=O)N2CCCC(C)(C(=O)NCc3ccccc3)C2)cc1 (stereo not drawn) | 106
CCCOc1ccc(C2C(C(=O)OC)=CN(Cc3ccc(OC)c(OC)c3)C=C2C(=O)OC)cc1 | 105
O=C(CSc1nc2[nH]ncc2c(=O)n1-c1ccc(Br)cc1)c1ccc(Cl)c(Cl)c1 | 114
CN1C2=NC(=O)/C(=C/c3ccc([N+](=O)[O-])o3)N2c2ccccc21 | 123
Cc1cc2c(cc1C)N=C(c1ccccc1)CC(SCC(=O)Nc1ccc3c(c1)OCO3)=N2 | 97
COc1ccc(-c2nc(-c3ccc(OC)c(OC)c3OC)[nH]c2-c2ccc(OC)cc2)cc1 | 111
COc1cc(/C=C2\Oc3ccc4c(C)cc(=O)oc4c3C2=O)ccc1O | 104
Cc1nc(CCNC(=O)[C@H]2CSCN2S(=O)(=O)c2ccc(Cl)cc2)cs1 | 103
O=C(c1ccc(F)c(F)c1)N1CCN(c2cc(N3CCCCC3)c(F)cc2[N+](=O)[O-])CC1 | 102
COc1ccc2c(c1)c1nc(SCCOc3ccc(F)cc3)n(C)c(=O)c1n2C | 101
CC1(C)CC(=O)C2=C(C1)N(c1ccc(Br)cc1)C(N)=C(C#N)C2c1cccnc1 (stereo not drawn) | 101
O=C(Cn1ccc2c(SCc3ccc(F)cc3)nccc21)NCCC1=CCCCC1 | 99
CCn1nnc2c(NC3CCCC3)ncnc21 | 101
CCOc1c(N2CCCC2)c(=O)c1=O | 100
O=C(CSc1nc2cc(C(=O)NCC3CCCO3)ccc2c(=O)n1Cc1ccco1)c1ccc(F)cc1 (stereo not drawn) | 111

In the list so far, these have a Cl atom:
SMILES | GIV Gai3 FP
CCS(=O)(=O)c1c(S(=O)(=O)CC)c2c3ccccc3ccn2c1C(=O)c1ccc(Cl)cc1 | 103
Clc1cccc(-c2nnc(-c3nc(NC4CCCC4)c4ccccc4n3)o2)c1 | 109
CC(C)C12C=CC(C)(CC1)C1C(=O)N(c3cccc(Cl)c3)C(=O)C12 (stereo not drawn) | 102
O=C(Nc1ccc(F)c(Cl)c1)C1OC2OC3(CCCCC3)OC2C2OC3(CCCCC3)OC12 (stereo not drawn) | 100
O=S(=O)(c1cc(-c2nnc(-c3ccc(F)cc3)o2)ccc1Cl)N1CCCCC1 | 101
COc1cc(C2C(N3C(=O)c4ccccc4C3=O)C(=O)N2c2ccc(C)c(Cl)c2)cc(OC)c1OC (stereo not drawn) | 108
C=CCN1C(=O)/C(=C\c2ccc(-c3ccc(Cl)c([N+](=O)[O-])c3)o2)C(=O)NC1=S | 103
O=C(NCc1c(-c2ccccc2)nc2n1CCS2)c1ccccc1Cl | 98
CN(C)C(=O)C1CCN(S(C)(=O)=O)c2cc(Cl)ccc2O1 (stereo not drawn) | 100
CCOC(=O)C1=C(O)/C(=C/c2ccc(O)cc2)SC1=Nc1cccc(Cl)c1 | 106
CCOC(=O)c1c(C)oc2ccc(N(C(=O)c3ccc(Cl)cc3)S(=O)(=O)c3ccccc3)cc12 | 107
Cn1c(=O)n(CC(=O)N2CCCC2)c(=O)c2cc(S(=O)(=O)Nc3ccc(Cl)cn3)ccc21 | 99
O=C1/C(=C/c2ccc(-c3cc(Cl)ccc3Cl)o2)C=C(c2ccccc2)N1c1ccc(Br)cc1 | 112
COc1ccc(C2Nc3ccc(Cl)cc3C(c3ccccc3)O2)cc1 (stereo not drawn) | 108
O=C(CSc1nc2[nH]ncc2c(=O)n1-c1ccc(Br)cc1)c1ccc(Cl)c(Cl)c1 | 114
Cc1nc(CCNC(=O)[C@H]2CSCN2S(=O)(=O)c2ccc(Cl)cc2)cs1 | 103

Screens (PubChem)
